Screening results: PubChem BioAssay, several laboratories
Ecoli rRNA inh: reduced GFP signal of wild-type E. coli, primary screen, bacterial rRNA inhibitor project, GFP/RFP fluorescence, OD600, single point; 1.6% of 350,000 active; AID 720706, 2013; GFP signal change (wild-type ribosome), % (no concentration beside the values); E. coli WT GFP vs humanized-ribosome RFP mutants, 24 h; active compounds read low; DMSO median 0, no signal -100;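 active = significant combined selectivity score with lowered wild-type GFP, culture density cut under 30%, mutant RFP and density less affected; inactive = any of these conditions unmet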; note: one replicate is shown; some compounds called inactive have numbers as strong as hits
Ecoli growth: E. coli growth inhibition, primary screen, OD600; 0.21% of 330,000 active; Escherichia coli growth, 23 h; active compounds read low; OD600 absorbance (no concentration beside the values);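 active = OD600 absorbance below the run mean of sample wells minus 3.6 SD, in any replicate, cut at about 0.56 in these data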;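 note: stock transfer was 300 nL into about 60 µL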
T cruzi inh: inhibitors of intracellular T. cruzi growth, primary screen, luminescence, NIH3T3 host cells; T. cruzi beta-gal in NIH3T3, 90 h; inhibition, % (test concentration not listed); 1.4% of 300,000 active; AID 1885, 2009;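 active = mean inhibition across valid replicates above about 55%, limit read from the data; inconclusive = mean below that limit but half or more replicates reach it; inactive = mean below it, under half of replicates reach it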;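 note: signal also drops with host cell toxicity which is not excluded here; 0% = plate median of DMSO wells and 100% = zero luminescence signal; higher percent means less beta-gal luminescence so fewer parasites; stock transfer was 50 nL into about 50 µL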
UCH37 DUB inh: inhibitors of human UCH37 deubiquitinase, primary screen, biochemical, Ub-AMC cleavage, fluorescence. purified proteasome/UCH37. AID 588478, 2011. 0.33% of 330,000 active. inhibition, % (test concentration not listed);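 active = mean of two replicates above 20%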;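 note: 0% = compound-free wells with enzyme and 100% = wells lacking proteasome; stock transfer was 100 nL into about 20 µL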
Target sequence (Q9Y5K5 whole entry, looked up): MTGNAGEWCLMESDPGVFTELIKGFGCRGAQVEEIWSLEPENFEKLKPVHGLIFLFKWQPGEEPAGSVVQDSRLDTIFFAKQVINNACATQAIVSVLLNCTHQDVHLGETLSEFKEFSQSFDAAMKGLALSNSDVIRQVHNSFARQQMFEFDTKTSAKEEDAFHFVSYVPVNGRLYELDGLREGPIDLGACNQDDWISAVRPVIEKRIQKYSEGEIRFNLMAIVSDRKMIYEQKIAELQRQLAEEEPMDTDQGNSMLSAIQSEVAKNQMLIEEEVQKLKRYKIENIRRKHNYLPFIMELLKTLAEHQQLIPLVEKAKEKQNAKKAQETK
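Assay system: Proteasome-bound UCH37. Buffer or medium: pH 7.4 Tris-HCl (50 mM) with ovalbumin, ATP-MgCl2, DTT. Incubation: 30 min preincubation with enzyme, 25 min cleavage at room temperature. Measured by: fluorescence, ex 355 nm, em 460 nm. Read-out basis: percent inhibition. Control set: wells without proteasome as full block, compound-free enzyme plus substrate as uninhibited.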
FGF22 binding: binders of human FGF22 protein, primary screen, FGF22 synaptogenesis inhibitor project, biophysical, thermal shift, single point; calls only at 9.99 µM; AID 651658, 2012; Fibroblast growth factor 22 (Homo sapiens), Q9HCT0; recombinant FGF22 thermal shift, SYPRO orange fluorescence; percent of sucrose octasulfate shift, DMSO zero; 1.5% of 340,000 active;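 active = melting point raised past a set limit in the mean and every replicate; inconclusive = no clear call; three in four hits are not shown here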
Target sequence (Q9HCT0 whole entry, looked up): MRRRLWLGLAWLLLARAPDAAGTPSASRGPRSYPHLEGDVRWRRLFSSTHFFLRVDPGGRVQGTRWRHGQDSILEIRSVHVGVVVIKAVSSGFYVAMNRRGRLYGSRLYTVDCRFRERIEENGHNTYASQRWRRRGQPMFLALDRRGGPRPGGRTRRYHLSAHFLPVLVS
Beta cell apopt: inhibitors of cytokine-induced beta cell apoptosis, primary screen, luminescence. protection from apoptosis, % (test concentration not listed). 0.8% of 300,000 active. AID 435005, 2010. INS-1E cytokine-induced death, ATP luminescence, 48 h; percent of positive-control rescue, neutral wells zero;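 active = all replicates at 75% or more, or half of them and the mean; inconclusive = half reach 75% but not the mean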;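 note: 0% = cytokine-treated negative control wells and 100% = positive control rescue; higher means more ATP so stronger rescue from cytokine killing; wells of about 40 µL received 100 nL stock; the first replicate is given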
MLL AF4-AF9 inh: inhibitors of AF4 peptide binding to AF9, primary screen, biochemical, AlphaScreen, biotin-AF4 peptide, FLAG-AF9, single point; Protein AF-9 (Homo sapiens), P42568; 0.47% of 350,000 active; inhibition, % at 10 µM; AID 651704, 2012;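 active = every replicate reaching a set inhibition limit, whatever the replicate mean, cut at about 25% in these data; inconclusive = mean inhibition reaches that limit but some replicates miss it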;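 note: 0% = plate neutral control median and 100% = total signal loss; the record names both 10 and 1 µM as test concentration; the first replicate is given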
Target sequence (P42568 whole entry, looked up): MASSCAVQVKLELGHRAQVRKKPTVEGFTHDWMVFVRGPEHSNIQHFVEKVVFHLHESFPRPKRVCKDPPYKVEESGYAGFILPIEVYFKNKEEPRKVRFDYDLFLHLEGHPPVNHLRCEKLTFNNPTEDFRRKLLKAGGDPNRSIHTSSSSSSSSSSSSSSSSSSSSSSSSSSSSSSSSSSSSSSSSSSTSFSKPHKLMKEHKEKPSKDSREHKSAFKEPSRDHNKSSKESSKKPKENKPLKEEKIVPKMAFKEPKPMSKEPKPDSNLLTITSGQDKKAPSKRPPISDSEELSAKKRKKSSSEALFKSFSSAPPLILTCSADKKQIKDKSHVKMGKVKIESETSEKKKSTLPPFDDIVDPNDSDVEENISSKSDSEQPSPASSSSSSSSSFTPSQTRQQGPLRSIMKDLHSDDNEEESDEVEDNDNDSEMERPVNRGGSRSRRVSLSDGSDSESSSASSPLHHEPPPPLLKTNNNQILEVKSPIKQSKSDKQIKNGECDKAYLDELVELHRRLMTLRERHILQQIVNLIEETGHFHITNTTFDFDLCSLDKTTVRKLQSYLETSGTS
A1 inh: caspase 3/7 activation in MEF A1-2A-BIM cells, primary screen, A1 inhibitor project, cell-based, luminescence, HTS; 0.066% of 330,000 active; Caspase-Glo 3/7 luminescence, 3 h; percent of clofoctol response, vehicle zero; caspase activation, % (no concentration beside the values);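 active = over half of replicate activation scores above 10%, or exactly half above 10 with the replicate mean above 10; inconclusive = replicate mean below 10 yet half the replicates above 10; inactive = over half of replicates below 10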;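 note: wells of about 30 µL received 50 nL stock; many hits fall short of the cut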
Ecoli rRNA inh OD600: recorded beside Ecoli rRNA inh, whose call it bears; OD600 change, %; measured here: OD600 growth;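 optical density of the mix in the first replicate; 0 = DMSO median and -100 = no signal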
Ecoli rRNA inh RFP: recorded beside Ecoli rRNA inh, whose call it bears; RFP signal change, %; measured here: RFP humanized mutant strains;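 first replicate; 0 = DMSO median and -100 = no signal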
The depositor's hits bear a star; i = inactive; u = inconclusive; x = no result given; & = joins results of further samples. Only part of the results is shown, so the mix of outcomes need not match the whole.

SMILES	Ecoli rRNA inh	Ecoli rRNA inh OD600	Ecoli rRNA inh RFP	Ecoli growth	T cruzi inh	UCH37 DUB inh	FGF22 binding	Beta cell apopt	MLL AF4-AF9 inh	A1 inh
O=C(CSc1nnc(-c2ccccc2F)n1C1CC1)NCc1ccco1	-8	4	-4.1	0.67	x	3.3	i	-6	2.0	-0.9
CC(=O)N(Cc1c(C#N)c2ccccc2n1C)c1ccccc1	x	x	x	0.7	-12	2.2	x	-3	x	-0.2
O=[N+]([O-])c1cc(Cl)cc(C2=NCCN2)c1	7	21	0.4	0.66	51	5.2	x	-8	x	0.2
O=C(N/N=C/C=C\c1ccccc1[N+](=O)[O-])c1cccs1	5	12	6.4	x	-8	x	x	-1	0.3	-0.6
CCCn1c(SCC(=O)NCc2ccc3c(c2)OCO3)n[nH]c1=O	2	10	-0.1	0.67	x	4.0	i	-7	u	0.1
Cc1ccc(OCC(=O)Nc2ccc(S(=O)(=O)N(C)C3CCN(C)CC3)cc2)c(C)c1	3	3	6.2	0.69	61*	6.2	i	11	4.9	-0.1
Cc1ccn(C(=O)c2cc3c(C)nn(-c4ccccc4)c3s2)n1	x	x	x	0.76	6	-40	x	13	x	0.8
CCCOC(=O)c1cc(=O)[nH]c2ccccc12	x	x	x	0.69	-9	-24	x	-2	x	1.7
Cc1ccc(NS(=O)(=O)c2c(C)[nH]c(C)c2C(=O)N2CCCC2)cc1Cl	-3	-3	-1.9	0.6	11	1.4	i	-4	2.7	0.9
COc1cc(NC(=O)c2nccn2C)cc(C(=O)Nc2cccc(C(F)(F)F)c2)c1	4&-3	20&9	-0.8&-7.8	0.69	-10	-0.6	i	-1	-4.1&-1.3	0.6
Cc1ccc2c(c1)N(CC(=O)NCCCN1CCCCC1)C(=O)CO2	2	1	-5.0	0.7	-4	4.7	i	-2	6.0	-0.2
COc1ccccc1NC(=O)c1ccc(-c2ccccc2[N+](=O)[O-])o1	-7	-10	-0.8	0.71	45	5.5	i	1	4.3	1.0
CC(c1ccccc1)N1CC(C(=O)N2CCN(c3ccccc3)CC2)CC1=O (stereo not given)	6	4	1.9	0.73	-10	5.0	i	-1	-2.7	-0.3
O=S(=O)(c1ccc2c(c1)OCCO2)N1CCN(S(=O)(=O)c2c(F)cc(F)cc2F)CC1	15	15	-0.8	0.8	x	4.0	i	2	-2.2	-1.1
C=CCOc1ccc(C2C(C#N)=C(N)N(N(C)C)C3=C2C(=O)CCC3)cc1 (stereo not given)	4	7	8.7	0.69	11	2.8	i	-2	3.1	-0.1
CC(OC(=O)C1=COCCO1)C(=O)NC1CCCCC1C (stereo not given)	4	3	-3.9	0.72	x	3.1	i	-9	-0.6	-1.3
CC(C)CCN1C(=O)c2ccccc2C1C(=O)NCc1cccnc1 (stereo not given)	x	x	x	0.72	-13	2.0	x	-2	x	0.4
O=c1[nH]c(C2CCN(S(=O)(=O)c3ccccc3C(F)(F)F)CC2)nc2c1nnn2Cc1ccccc1	-9	-40	15	0.68	21	1.2	i	x	-2.6	-0.7
O=C(NCC(=O)N1CCN(c2ccccc2O)CC1)c1ccc2ccccc2c1	-20	-17	-3.0	0.65	-2	1.5	i	5	-0.5	-0.6
O=C(NC(=S)Nc1cccc(O)c1)c1cncc(Br)c1	-27	-26	-3.0	0.67	x	3.8	i	-4	-1.8	-2.7
CCOC(=O)C(=O)NNc1ccccc1C	17	8	1.2	0.69	-1	-2.3	i	-3	1.0	0.3
COC(=O)C1=C(C)N(c2ccccc2)/C(=C/c2cccs2)C1=O	15	4	-3.7	0.72	23	6.3	i	4	3.1	0.0
COc1ccc(CSc2nc(C)[nH]c2[N+](=O)[O-])cc1[N+](=O)[O-]	-7	7	-4.1	0.62	-1	8.7	i	7	x	0.4
COc1ccccc1C(=O)Nc1nnc(SCC(=O)NCc2ccco2)s1	x	x	x	0.66	4	2.5	x	-1	x	0.4
Cc1cc(C(=O)NNC(=O)c2sccc2C)c(C)o1	7	12	-1.3	0.7	-9	1.2	i	0	-1.9	-0.2
Cc1ccc(NC(=S)N2CCN(S(=O)(=O)c3ccc(C)cc3)CC2)cc1	7	-3	1.8	0.72	x	-0.8	i	-1	-1.7	0.4
Cc1ccc(C)c(NC(=O)CN(C)C(=O)c2cccc(S(=O)(=O)N3CCCC3)c2)c1	1	3	-1.2	0.71	x	1.7	i	x	-12	x
COc1cc(C(=O)OCC(=O)Nc2cc(S(=O)(=O)N3CCOCC3)ccc2C)ccc1OCC(C)C	7	17	-1.1	0.62	8	1.2	i	3	1.7	-0.4
O=C(CC1C[C@H](C(=O)N2CCOCC2)[C@@]2(CCC3CCCC3)c3[nH]c4ccccc4c3CCN2C1=O)NCC12CC3CC(CC(C3)C1)C2 (stereo not given in full)	3	8	-3.9	0.71	x	6.5	i	3	1.3	-1.0
COc1ccc(CNC(=O)CN(C(=O)c2snc(C(N)=O)c2N)c2cccc(F)c2)cc1	1	-1	-1.2	0.7	-3	-3.7	i	3	6.5	0.0
CCN1CCN(CCNC(=O)CCc2c(C)c3c(C)nn(-c4ccccc4)c3n(C)c2=O)CC1	x	x	x	0.63	-1	-3.2	x	3	x	-1.8
O=c1cc(CSc2ccc(Cl)cc2)nc(N2CCCCC2)[nH]1	x	x	x	0.73	-4	0.2	x	-7	x	-0.5
Cc1ccn(CC(=O)N2CCCC(N3CCN(c4ccccc4F)CC3)C2)n1 (stereo not given)	11	8	-0.2	0.69	-10	0.4	i	x	-3.8	x
CCOC(=O)[C@@H]1[C@H]2COc3cc(OC)ccc3[C@H]2N2C(=O)N(c3ccc(C)cc3)C(=O)[C@@]12C	7	8	3.3	0.81	-8	1.4	i	6	2.8	-0.4
CCOc1ccc2ncc(S(=O)(=O)c3ccccc3)c(N3CCN(c4ccc(OC)cc4)CC3)c2c1	4	9	-0.1	0.7	42	1.2	i	19	8.3	0.6
C#CC1(O)CCCC2C3CCC4CC(OC(C)=O)CCC4(C)C3C(=O)CC21C (stereo not given)	-56	-72	-6.7	0.71	x	-2.4	x	x	2.4	x
COc1ccc(C(=O)/C=C/c2ccccc2F)c(OC(=O)c2ccc([N+](=O)[O-])cc2)c1	x	x	x	0.7	-5	5.0	x	6	x	-1.4
NC(=O)CCN1CCCCC1	12	4	-2.6	0.67	-11	-1.9	i	4	-2.2	0.5
O=[N+]([O-])c1ccc(N2CCN(c3cccc(Cl)c3)CC2)cn1	0	13	-1.0	0.64	-6	5.3	i	-5	-0.3	0.9
CC(=O)N1CCC2(CC1)CC(=O)c1cc(OCC(=O)NCc3ccco3)ccc1O2	x	x	x	0.67	-15	-405	x	2	x	-0.7
O=C(NC(=S)Nc1ccccn1)c1ccc([N+](=O)[O-])cc1	x	x	x	0.67	2	3.6	x	-4	x	-0.9
CCN(CC)C(=S)Nc1ccc(Cl)c(Cl)c1	-17	-17	4.6	x	-52	x	i	-11	-5.3	0.0
CS(=O)(=O)N(CC(=O)N1CCN(c2ccccc2)CC1)c1ccccc1Cl	x	x	x	0.71	-7	-1.6	x	-1	x	0.7
Cc1ccc(Oc2nccc(-c3ccc(Cl)cc3)n2)cc1	x	x	x	0.74	8	-4.9	x	-4	x	-0.1
CC(C)C(=O)Nc1cccc(C(=O)Nc2nncs2)c1	x	x	x	0.71	-5	0.3	x	3	x	0.7
CCNC(=O)CC1C(=O)N(c2ccccc2)C(=O)N1CCC(C)C (stereo not given)	x	x	x	0.7	9	0.8	x	-10	x	-0.6
C=CCNC(=O)/C(=C\c1ccc([N+](=O)[O-])cc1)NC(C)=O	x	x	x	0.7	x	5.3	x	-4	x	0.3
CCCn1c(C)cc(C(=O)COc2ccc(S(=O)(=O)N(CC)CC)cc2[N+](=O)[O-])c1C	4	8	0.0	0.7	7	-2.4	i	9	-5.7	-0.7
Cc1ccc(O)c(NC(=O)c2cc(C)no2)c1	5	11	1.7	0.69	-6	1.5	i	0	1.6	-0.9
CCOc1ccc(S(=O)(=O)n2nc(C)cc2C)c2ccccc12	x	x	x	0.66	17	4.4	x	-8	x	-0.2

The listing continues.
SMILES	Ecoli rRNA inh	Ecoli rRNA inh OD600	Ecoli rRNA inh RFP	Ecoli growth	T cruzi inh	UCH37 DUB inh	FGF22 binding	Beta cell apopt	MLL AF4-AF9 inh	A1 inh
CCOC(=O)c1[nH]c(C=O)c(C(=O)OCC)c1C	-14	-8	8.3	0.69	0	4.7	i	24	-2.1	2.1
Cc1nnc(NC(=O)CCCN2C(=O)c3ccccc3C2=O)s1	x	x	x	0.67	-2	0.3	x	x	x	-0.2
CCN(CC)S(=O)(=O)c1ccc(N=Nc2c(C)[nH]n(C(N)=S)c2=O)cc1	x	x	x	0.69	-6	12	x	7	x	-6.3
O=C(Cn1nnc(-c2ccc3c(c2)OCO3)n1)NCc1ccccc1	11	8	3.1	0.68	-2	1.8	i	-8	-3.1	-0.6
CS(=O)(=O)N(CC(=O)NCc1ccco1)c1ccc2c(c1)OCO2	x	x	x	0.63	-7	-0.7	x	-13	x	0.8
N#Cc1c(SCc2c(Cl)cccc2Cl)nc(N)[nH]c1=S	-57	-76	-19	0.61	x	7.5	i	-1	6.0	-0.1
Cn1c(-c2ncc(F)cc2F)cc2onc(-c3c(F)cccc3Cl)c2c1=O	1	1	-4.8	0.71	x	1.2	i	0	-51	0.0
O=C(CSc1ccccc1)Nc1nnc(COc2ccc(Cl)cc2)s1	-6	-8	-8.5	0.64	2	3.3	i	-12	-0.4	-0.6
COC(=O)c1ccccc1CON1C(=O)C(C)(C)N(OCc2ccccc2C(=O)OC)C(=O)C1(C)C	-9	-3	-9.8	0.65	-1	0.4	i	-1	-11	-2.4
COc1ccc2[nH]c3c(c2c1)CCNC3=O	2	1	-3.9	0.7	-2	-56	i	-9	4.9	-0.3
CCCN1CCC(=O)N([C@H](CSc2ccc(Br)cc2)c2ccccc2)CC1	-10	-1	0.4	x	4	2.1	i	-1	x	-0.2
O=C(c1cc2ncc(CCCl)cn2n1)N1CCCCCC1	x	x	x	0.64	-15	-2.0	x	-5	x	0.1
O=C(Nc1cccc(NC(=O)c2ccco2)c1)c1ccc([N+](=O)[O-])cc1	7	14	2.6	0.71	25	-0.6	i	9	1.3	-0.6
CNC(=S)N1CCN(c2nc(-c3ccc(F)cc3)cs2)CC1	0	-1	-3.1	0.68	-21	2.8	i	-3	-0.7	0.3
CCC(=O)OCCn1c(Br)nc2c1c(=O)[nH]c(=O)n2C	x	x	x	0.69	-9	0.9	x	3	x	0.7
